Bioassay records: PubChem BioAssay, National Center for Advancing Translational Sciences (NCATS)
SARS PLP yeast: blocks SARS-CoV papain-like protease in a yeast assay; S. cerevisiae expressing SARS-CoV PLpro, growth rescue; control for the full effect not named in the record; Potency, µM (titrated, usually from 32.9 µM), without a hit: at the top dose activity, positive = growth rescue; hit rate 0.19% among 330,000; AID 485353; active means well fitted rising curve with a large enough effect; inconclusive means small, poorly fitted or top-dose-only effect; inactive means no such curve, though single readings can be large or run the other way; further: 0% is about no effect; nearly all actives have a fitted effect of over 55% in size; growth read by luminescence after 48 h
NS1 inh: inhibitors of influenza NS1 protein function; AID 2326; S. cerevisiae slowed by influenza A NS1, growth recovery by OD600; hit rate 0.4% among 270,000; Potency, µM (top dose mostly 46.1 µM), without a hit: at the top dose activity, positive = more growth; active means well fitted rising curve with a large enough effect; inconclusive means small, poorly fitted or top-dose-only effect; inactive means no such curve, though single readings can be large or run the other way; further: nearly all actives have a fitted effect of over 50% in size
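S. cerevisiae expressing influenza A NS1, grown in glucose, washed, then diluted 1:100 into pH 6.0 -URA galactose medium with 23 nl compound. Growth recovery read as OD600; NS1-free strain serves as control.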
Cruzain inh Det: cruzain (T. cruzi) inhibition with detergent | P25779 | purified cruzain, Z-FR-AMC fluorescence, 0.01% Triton | Potency, µM, for the others: max response, negative = inhibition, usual class: inhibitors | hit rate 0.43% among 200,000 | AID 1478;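 further: plate controls were neutral wells for no effect and buffer without enzyme for full effect; nearly all actives have a fitted effect of over 40% in size; top concentration of the series not given in the record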
Target sequence (P25779 123-467 limits assumed): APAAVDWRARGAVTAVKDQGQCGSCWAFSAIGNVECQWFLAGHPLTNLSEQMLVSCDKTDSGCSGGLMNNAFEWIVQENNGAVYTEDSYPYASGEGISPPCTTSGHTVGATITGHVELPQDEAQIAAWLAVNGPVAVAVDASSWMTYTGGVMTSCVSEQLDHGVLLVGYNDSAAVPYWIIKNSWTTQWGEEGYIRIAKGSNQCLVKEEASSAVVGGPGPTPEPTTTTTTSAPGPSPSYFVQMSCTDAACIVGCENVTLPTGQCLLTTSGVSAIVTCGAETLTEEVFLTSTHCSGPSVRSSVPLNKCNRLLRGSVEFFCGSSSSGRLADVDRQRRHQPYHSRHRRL
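Purified cruzain (1.5 nM final) was preincubated with compounds for 15 min at room temperature in 100 mM sodium acetate pH 5.5, 5 mM DTT, 0.01% Triton X-100. Reaction started with 2 uM Z-FR-AMC; AMC fluorescence change over 60 s gave activity.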
RE007 growth inh: less growth of the S. pombe RE007 Vpr strain. Potency, µM (top dose mostly 92.2 µM), without a hit: at the top dose activity change, negative = less growth. hit rate 0.21% among 360,000. AID 651644. S. pombe RE007 Vpr strain, BacTiter-Glo ATP luminescence, 24 h; control for the full effect not named in the record; active = well fitted falling curve with a large enough effect; inconclusive = small, poorly fitted or top-dose-only effect; inactive = no such curve, though single readings can be large or run the other way;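 further: on the % scale 0 is the no-effect control and ±100 the full control effect; nearly all actives have a fitted effect of over 50% in size; the assay follows cell death caused by Vpr and the record does not say whether a fall means rescue or toxicity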
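Fission yeast RE007 carrying one integrated HIV-1 vpr copy, seeded at OD 0.01 in PMG+AL medium with 23 nL pinned compound. Grown 24 h at 30 degrees; viability read by BacTiter-Glo luminescence after 5 min.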
Cruzain noTriton: cruzain (T. cruzi) inhibition without detergent. P25779. purified cruzain, Z-FR-AMC fluorescence, no detergent. Potency, µM, without a hit: max response, negative = inhibition, usual class: inhibitors. hit rate 2.3% among 200,000. AID 1476;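 further: plate controls were enzyme without inhibitor for no effect and buffer without enzyme for full effect; nearly all actives have a fitted effect of over 40% in size; top concentration of the series not given in the record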
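Detergent-free condition (0.00005% Triton X-100) in acetate buffer pH 5.5 with DTT. 1.5 nM enzyme and compound were pre-mixed 15 min, then 2 uM Z-FR-AMC substrate added; reaction progress from fluorescence change between first and third reads (60 s).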
2A StopGo: FMDV 2A StopGo reporter, luciferase signal; human cells with a luciferase reporter of 2A StopGo recoding; control for the full effect not named in the record; Potency, µM (series often up to 57.9 µM), without a hit: top-dose signal change, negative = less light; hit rate 1.2% among 410,000; AID 1159524; active = well fitted falling curve with a large enough effect; inconclusive = small, poorly fitted or top-dose-only effect; inactive = no such curve, though single readings can be large or run the other way; tested in HEK293T cells; further: on the % scale 0 is the no-effect control and ±100 the full control effect; nearly all actives have a fitted effect of over 45% in size; luciferase light after 4 h
MARV entry inh: blocks Marburg virus binding to or entry into cells | Marburg virus pseudotyped entry inhibition, cell reporter; control for the full effect not named in the record; about a third of the inactives were read at about 46 µM | Potency, µM (doses to about 37.8 µM), for the others: at the highest dose activity change, negative = inhibition, usual class: inhibitors | hit rate 1.8% among 300,000; active = well fitted inhibition curve with a large enough effect; inconclusive = small, poorly fitted or top-dose-only effect, or effect the other way; inactive = flat fitted curve, though single readings scatter; tested in HEK293 cells; about a fifth of its hits are not listed in these tables; further: on the % scale 0 is the no-effect control and ±100 the full control effect; luciferase read-out
LASV entry inh: Lassa virus entry inhibition | hit rate 1.2% among 300,000 | Lassa virus pseudotype entry inhibition, cell reporter; control for the full effect not named in the record | AID 540256 | Potency, µM (top dose mostly 37.9 µM), for the others: at the top dose activity change, negative = inhibition, most hits filed as inhibitors; active means well fitted inhibition curve with a large enough effect; inconclusive means small, poorly fitted or top-dose-only effect, or effect the other way; inactive means flat fitted curve, though single readings scatter; tested in HEK293 cells; further: on the % scale 0 is the no-effect control and ±100 the full control effect; nearly all actives have a fitted effect of over 50% in size; luciferase read-out
The depositor's hits bear a star; & = joins results of further samples; [ ] = another dose, or the depositor's remark. Unless noted, the call rests on the fitted dose curve; in most records, active means well fitted curve in the direction sought with a large enough effect; inconclusive means small, poorly fitted or top-dose-only effect, or another doubt; inactive means no such curve, though single readings can be large; an effect the other way counts as inactive or inconclusive. Potency means the concentration at half of the fitted maximal effect.

`COc1cc(OC)cc(-c2nc(N)n[nH]2)c1` gave SARS PLP yeast -1.5%, NS1 inh 3.2%, Cruzain inh Det 4.1%, RE007 growth inh -12.3%, Cruzain noTriton -7.8%, 2A StopGo -2.2%, MARV entry inh 12.8%[46.1 µM] and LASV entry inh -3.6%.
For N#CCOc1ccccc1/C=C/c1nc2ccccc2c(=O)[nH]1 the results were SARS PLP yeast 0.2%, NS1 inh 16.0%, RE007 growth inh -9.1%, 2A StopGo 17.1%, MARV entry inh inconclusive and LASV entry inh inconclusive.
`COCCCNC(=O)c1cc(-c2ccc(OC)cc2)nc2n[nH]c(-c3ccc(Cl)cc3)c12` gave Cruzain inh Det 1.9%, Cruzain noTriton -3.4%, 2A StopGo 0.1% and LASV entry inh 4.3%[46.1 µM].
CCn1c(C)c(C)c2cc(C(=O)NCc3ccc(N(C)C)cc3)ccc21 was read as Cruzain inh Det -7.9%, Cruzain noTriton inconclusive, 2A StopGo 11.8% and LASV entry inh -27.8%[46.1 µM].
`O=C(COc1cccc2ccccc12)Nc1ccc(Cl)cc1C(=O)O` gave SARS PLP yeast -8.8%, NS1 inh -38.5%, RE007 growth inh -8.2%, 2A StopGo inconclusive, MARV entry inh inconclusive and LASV entry inh inconclusive.
`CN1C(C(=O)NCC2CC2)CC2Cn3c(nc4cc5ccccc5cc43)C21` (centres undefined) gave SARS PLP yeast -6.8%, NS1 inh -8.8%, RE007 growth inh -19.6% and 2A StopGo -2.6%.
For CCOC(=O)c1cnc(-n2nc(C)cc2C)nc1NC1CCCCC1 the results were SARS PLP yeast -33.1%, NS1 inh -251.5%, Cruzain inh Det -7.8%, RE007 growth inh -19.4%, Cruzain noTriton 14.2%, 2A StopGo 10µM*, MARV entry inh 6.31µM* and LASV entry inh inconclusive.
For O=C(NNC(=O)C1CCC1)c1ccccc1F the results were SARS PLP yeast -0.4%, RE007 growth inh 16.8%, 2A StopGo -8.6%, MARV entry inh 0.0% and LASV entry inh -10.0%.
For C=CCNC(=O)Cc1c(OC)ccc2cc(Br)ccc12 the results were SARS PLP yeast 1.0%, NS1 inh 2.1%, RE007 growth inh 2.1%, 2A StopGo inconclusive and MARV entry inh -27.1%[46.1 µM].
CC(C)CC(=O)Nc1nnc(S(=O)(=O)N2CCc3ccccc32)s1 was read as SARS PLP yeast 1.1%, NS1 inh -2.2%, Cruzain inh Det -3.3%, RE007 growth inh 1.3%, Cruzain noTriton 2.9%, 2A StopGo -8.6%&1.3% and LASV entry inh -5.2%[46.1 µM].
`COc1ccccc1C1C2=C(CC(C)(C)CC2=O)N(CC(=O)O)C2=C1C(=O)CC(C)(C)C2` gave SARS PLP yeast -0.3%, NS1 inh 15.3%, RE007 growth inh -7.1% and 2A StopGo 5.5%.
Screening CCc1ccccc1N(C)C(=O)c1cc2c(Cl)nc3ccc(C)cc3c2s1 returned Cruzain inh Det 0.6%, Cruzain noTriton -7.7%, 2A StopGo inconclusive, MARV entry inh -2.9%[46.1 µM] and LASV entry inh 24.4%[46.1 µM].
CCS(=O)(=O)c1nc(S(=O)(=O)c2ccc(C)cc2)c(N2CCOCC2)s1 was read as SARS PLP yeast -0.5%, NS1 inh -3.3%, RE007 growth inh -2.0% and 2A StopGo 1.2%.
`Cc1nn(-c2ccccc2)c2c1N(CCCC(=O)NCc1ccc(Cl)cc1)C(=O)CS2` gave Cruzain inh Det -5.7%, Cruzain noTriton inconclusive, 2A StopGo -27.2% and LASV entry inh inconclusive.
Screening O=C(N/N=C/c1ccc(O)cc1)c1csc2ccccc12 returned SARS PLP yeast -3.5%, NS1 inh -3.4%, Cruzain inh Det -8.2%, RE007 growth inh 5.6%, Cruzain noTriton 1.8%, 2A StopGo -15.4%, MARV entry inh inconclusive and LASV entry inh inconclusive.
Screening O=C(/C=C\Nc1cccc(F)c1)c1cccs1 returned SARS PLP yeast -16.9%, NS1 inh -20.2%, Cruzain inh Det -3.3%, RE007 growth inh inconclusive, Cruzain noTriton -5.0%, 2A StopGo -36.1%, MARV entry inh inconclusive and LASV entry inh 11.2µM*.
`O=C(CNc1cccc(S(=O)(=O)N2CCCCC2)c1)Nc1ccccc1F` gave SARS PLP yeast -6.4%, NS1 inh -9.8%, RE007 growth inh -8.4% and 2A StopGo -25.7%.
CN(C1CCCCC1)S(=O)(=O)c1ccc(NC(=O)C2CCCCC2C(=O)O)cc1 (centres undefined) was read as SARS PLP yeast 4.2%, NS1 inh 15.3%, Cruzain inh Det -5.4%, RE007 growth inh -0.3%, Cruzain noTriton -10.2%, 2A StopGo -7.0%, MARV entry inh 3.8% and LASV entry inh -3.0%.
O=C(CCCNC(=O)c1ccc(Cl)cc1)NCc1ccc(F)cc1 was read as SARS PLP yeast -2.9%, NS1 inh -3.2%, RE007 growth inh 10.0%, 2A StopGo -6.0%, MARV entry inh 14.7%[46.1 µM] and LASV entry inh -1.6%.
For COc1ccccc1NC(=O)c1sc(NC(=O)c2ccco2)c(C#N)c1C the results were SARS PLP yeast -7.3%, NS1 inh 10.3%, Cruzain inh Det -2.0%, RE007 growth inh 1.0%, Cruzain noTriton -5.5%, MARV entry inh inconclusive and LASV entry inh 17.4%.
Screening Cc1cc(NC(=O)Cn2nc(C(F)(F)F)c3c2CCC3)no1 returned SARS PLP yeast -3.6%, NS1 inh -5.7%, Cruzain inh Det 0.7%, RE007 growth inh -0.3%, Cruzain noTriton -9.3%, 2A StopGo -11.0%, MARV entry inh 15.8%[46.1 µM] and LASV entry inh 19.6%.
Cc1ccc(/C=N/NC(=O)c2cccs2)s1 was read as SARS PLP yeast -38.1%, NS1 inh -3.1%, Cruzain inh Det -10.2%, RE007 growth inh -1.3%, Cruzain noTriton -10.9% and 2A StopGo 63.5%[activator].
`CCOC(=O)c1sc2nc(CSCC(=O)OCc3ccc(C(=O)OC)o3)[nH]c(=O)c2c1C` gave SARS PLP yeast -0.3%, NS1 inh -41.1%, Cruzain inh Det 0.5%, RE007 growth inh 10.8%, Cruzain noTriton 21.6%, 2A StopGo -7.7%, MARV entry inh 2.5%&2.5% and LASV entry inh -16.1%.
For COc1ccccc1/C=C/C=N/N1CCN(Cc2ccccc2)CC1 the results were SARS PLP yeast -6.6%, NS1 inh -5.9%, Cruzain inh Det -7.9%, RE007 growth inh -2.9%, Cruzain noTriton 9.3%, 2A StopGo 3.2%, MARV entry inh -0.4% and LASV entry inh 11.7%.
O=C(NCc1cn2ccccc2n1)c1ccco1 was read as SARS PLP yeast 10.9%, NS1 inh 15.6%, Cruzain inh Det -2.2%, RE007 growth inh 13.2%, Cruzain noTriton -5.9% and 2A StopGo 2.0%.
Screening CC1CCN(S(=O)(=O)c2ccc3c(ccn3CC(=O)NCc3ccc(N(C)C)cc3)c2)CC1 returned Cruzain inh Det -8.1%, Cruzain noTriton -11.1%, 2A StopGo -23.0% and LASV entry inh 11.6%[46.1 µM].
Screening COc1cc(/C=C(/C#N)c2nc3ccccc3[nH]2)ccc1OCc1ccc(C(=O)O)o1 returned SARS PLP yeast -8.2%, NS1 inh 10.6%, Cruzain inh Det -2.4%, RE007 growth inh 0.2%, Cruzain noTriton inconclusive, 2A StopGo 3.5%, MARV entry inh inconclusive and LASV entry inh 12.9%.
Screening CCOC(=O)C1(CCCc2ccccc2)CCN(C(=O)CN2C(=O)CSC2=O)CC1 returned SARS PLP yeast -0.5%, NS1 inh -6.3%, RE007 growth inh 4.4%, 2A StopGo -14.7%, MARV entry inh 22.1%[46.1 µM] and LASV entry inh -28.4%[46.1 µM].
`CCCOc1ccc(-c2c(C(=O)N/N=C(\C)c3ccncc3)nnn2-c2nonc2N)cc1` gave SARS PLP yeast -1.9%, NS1 inh 28.6%, RE007 growth inh 4.3%, 2A StopGo -14.7%, MARV entry inh inconclusive and LASV entry inh -4.9%[46.1 µM].
Screening N#Cc1cc(C#N)c(SCC(=O)NCC2CCCO2)nc1N (centres undefined) returned SARS PLP yeast 0.9%, NS1 inh -4.3%, RE007 growth inh -6.8%, 2A StopGo -6.4%, MARV entry inh 6.2%[46.1 µM] and LASV entry inh -3.4%.
For CCN1C(=O)C(CC(=O)Nc2c(C)cccc2C)Nc2cc(S(=O)(=O)N(C)C)ccc21 (centres undefined) the results were SARS PLP yeast -0.4%, RE007 growth inh -6.8%, 2A StopGo -6.3%, MARV entry inh 0.1%[46.1 µM] and LASV entry inh -2.5%.
Screening COC(=O)c1cccc(NC(=O)c2ccc(S(=O)(=O)N3CCN(C)CC3)cc2)c1 returned SARS PLP yeast -1.1%, NS1 inh -15.0%, Cruzain inh Det -1.5%, RE007 growth inh 13.8%, Cruzain noTriton -6.5%, 2A StopGo 7.9%, MARV entry inh 2.3% and LASV entry inh 19.9%.
Cc1ccn(-c2n[nH]c(C)c2[N+](=O)[O-])n1 was read as SARS PLP yeast -0.1%, NS1 inh -0.5%, RE007 growth inh 16.0%, 2A StopGo -21.3%, MARV entry inh inconclusive and LASV entry inh 9.6%.
`COc1ccc(-c2nc3ccc(C(=O)NCc4ccc(C)cc4)cc3nc2-c2ccc(OC)cc2)cc1` gave Cruzain inh Det 1.1%, Cruzain noTriton 8.4%, 2A StopGo -7.4% and LASV entry inh inconclusive.
Screening COc1ccc(C(CNC(=O)c2oc3ccc(Br)cc3c2C)N2CCCCC2)cc1 (centres undefined) returned SARS PLP yeast 2.3%, RE007 growth inh 2.1%, 2A StopGo -26.9%, MARV entry inh -7.6% and LASV entry inh -5.4%.
`CCCCSc1nc2c([nH]1)c(=S)n(C)c(=O)n2C` gave RE007 growth inh 0.6%, 2A StopGo -4.4%, MARV entry inh -19.5% and LASV entry inh -5.5%.
COc1ccc(NS(=O)(=O)c2cc([N+](=O)[O-])ccc2N/N=C/c2c(C)[nH]c3ccccc23)cc1 was read as RE007 growth inh 2.4%, 2A StopGo 20.8%, MARV entry inh 19.2% and LASV entry inh -4.2%.
`COc1ccc(CCNC(=O)c2ccncc2)cc1OC` gave SARS PLP yeast -8.2%, NS1 inh 3.1%, Cruzain inh Det 6.3%, RE007 growth inh -0.4%, Cruzain noTriton -11.7%, 2A StopGo -13.1%, MARV entry inh -27.1% and LASV entry inh 8.5%.
For O=C(NC(=O)c1cccc(Cl)c1)OC[C@@H]1CCCN2CCCCC12 (some centres undefined) the results were SARS PLP yeast 9.8%, NS1 inh 18.4%, Cruzain inh Det 6.0%, RE007 growth inh 5.3%, Cruzain noTriton -0.7% and 2A StopGo -7.0%.
